Calb FLC: C. albicans growth modulation with fluconazole; 0.57% of 300,000 active; AID 1979; growth inhibition, % (no concentration beside the values); C. albicans CaCi-2 (fluconazole-resistant clinical isolate) + fluconazole, Alamar Blue growth, 48 h;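 active means most replicates above 75%; inconclusive means exactly half above 75%; inactive means most below 75%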;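 further: all wells also contain fluconazole at 8 µg/ml as a sub-toxic cotreatment; 0% = median of DMSO wells and 100% = median of geldanamycin control wells; wells of about 8 µL received 7.5 nL stock; the first replicate is given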
RanGTP-Imp inh: inhibitors of RanGTP-importin-beta interaction, primary screen, biochemical, FRET, CFP-Ran, YFP-importin-beta, homogeneous; cell-free CFP-Ran/YFP-importin-beta FRET ratio; inhibition, % (concentration not given with the values); 1.1% of 300,000 active;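 active means most replicates above 15%; inconclusive means exactly half above 15%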;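 further: 0% = DMSO wells and 100% = Ran loaded with GDP instead of GTP; wells of about 40 µL received 100 nL stock; the first replicate is given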
UCH37 inh: human UCH37 deubiquitinating enzyme inhibition; purified proteasome/UCH37, Ub-AMC cleavage fluorescence; AID 588478; Q9Y5K5; 0.33% of 330,000 active; inhibition, % (concentration not given with the values);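 active means mean of two replicates above 20%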;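 further: 0% = compound-free wells with enzyme and 100% = wells lacking proteasome; stock transfer was 100 nL into about 20 µL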
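Material: Human UCH37 enzyme supplied as purified proteasome complex | Schedule: 30 min compound-proteasome preincubation then 25 min substrate reaction, room temperature | Detection: AMC fluorescence from Ub-AMC cleavage, excitation 355 nm, emission 460 nm | Benchmarks: Wells without proteasome as full block, compound-free enzyme plus substrate as uninhibited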
LANA-H2A inh: blocks KSHV LANA binding to histone H2A/H2B. Q9QR71. cell-free LANA-H2A/H2B peptide, fluorescence polarization. inhibition, % (concentration not given with the values). 0.6% of 320,000 active. AID 2629; in the data active means inhibition mostly above about 10%, no sharp cut-off; inactive means mostly below about 6.7%;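 further: stock transfer was 7.5 nL into about 10 µL; 0% = median of vehicle wells and 100% = median of positive control wells; one replicate is shown; the record names a cut of 25% in any replicate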
Target sequence (Q9QR71 whole entry, looked up): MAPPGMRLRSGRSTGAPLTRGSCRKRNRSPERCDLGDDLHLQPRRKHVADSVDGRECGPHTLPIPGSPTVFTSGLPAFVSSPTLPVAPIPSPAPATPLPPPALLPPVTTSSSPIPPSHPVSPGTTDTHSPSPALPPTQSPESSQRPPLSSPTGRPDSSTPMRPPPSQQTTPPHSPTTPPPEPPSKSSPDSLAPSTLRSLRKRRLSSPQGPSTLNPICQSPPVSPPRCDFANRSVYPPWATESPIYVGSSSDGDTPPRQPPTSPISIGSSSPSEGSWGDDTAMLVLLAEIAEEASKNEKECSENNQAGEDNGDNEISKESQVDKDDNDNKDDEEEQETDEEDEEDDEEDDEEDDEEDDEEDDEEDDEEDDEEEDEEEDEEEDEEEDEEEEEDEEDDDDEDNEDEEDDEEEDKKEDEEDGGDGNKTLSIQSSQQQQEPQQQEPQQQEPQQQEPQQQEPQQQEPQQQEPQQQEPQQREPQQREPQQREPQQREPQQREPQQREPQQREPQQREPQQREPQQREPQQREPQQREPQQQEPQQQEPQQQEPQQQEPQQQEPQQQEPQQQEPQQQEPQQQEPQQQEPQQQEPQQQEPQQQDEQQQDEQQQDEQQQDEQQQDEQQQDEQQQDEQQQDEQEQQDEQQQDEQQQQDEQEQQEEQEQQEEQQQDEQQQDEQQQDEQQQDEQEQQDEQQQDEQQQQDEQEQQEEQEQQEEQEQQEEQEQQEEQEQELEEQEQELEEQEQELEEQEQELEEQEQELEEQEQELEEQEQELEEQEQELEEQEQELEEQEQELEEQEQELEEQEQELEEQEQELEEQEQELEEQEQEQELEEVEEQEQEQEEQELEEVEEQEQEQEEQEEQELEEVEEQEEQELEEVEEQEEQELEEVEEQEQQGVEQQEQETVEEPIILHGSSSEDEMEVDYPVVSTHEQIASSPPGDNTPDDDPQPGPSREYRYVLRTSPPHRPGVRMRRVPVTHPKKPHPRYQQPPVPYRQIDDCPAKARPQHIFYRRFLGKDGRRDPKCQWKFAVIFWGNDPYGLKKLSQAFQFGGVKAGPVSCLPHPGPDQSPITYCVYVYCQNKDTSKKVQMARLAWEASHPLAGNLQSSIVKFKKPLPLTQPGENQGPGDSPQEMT
Bfl-1 A1 inh: inhibitors of the anti-apoptotic protein A1, read as caspase activation | MEF A1-2A-BIM cells, Caspase-Glo 3/7 luminescence, 3 h; percent of clofoctol response, vehicle zero | caspase activation, % (no concentration beside the values) | 0.066% of 330,000 active | AID 2462;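 active means over half of replicate activation scores above 10%, or exactly half above 10 with the replicate mean above 10; inconclusive means replicate mean below 10 yet half the replicates above 10; inactive means over half of replicates below 10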;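 further: wells of about 30 µL received 50 nL stock; many hits fall short of the cut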
T cruzi inh: T. cruzi replication inhibition | T. cruzi beta-gal in NIH3T3, luminescence, 90 h | inhibition, % (concentration not given with the values) | 1.4% of 300,000 active;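 active means mean inhibition across valid replicates above about 55%, limit read from the data; inconclusive means mean below that limit but half or more replicates reach it; inactive means mean below it, under half of replicates reach it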;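 further: signal also drops with host cell toxicity which is not excluded here; 0% = plate median of DMSO wells and 100% = zero luminescence signal; higher percent means less beta-gal luminescence so fewer parasites; stock transfer was 50 nL into about 50 µL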
Beta cell apopt: blocks beta cell apoptosis; INS-1E cytokine-induced death, ATP luminescence, 48 h; percent of positive-control rescue, neutral wells zero; protection from apoptosis, % (concentration not given with the values); 0.8% of 300,000 active;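 active means all replicates at 75% or more, or half of them and the mean; inconclusive means half reach 75% but not the mean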;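 further: 0% = cytokine-treated negative control wells and 100% = positive control rescue; higher means more ATP so stronger rescue from cytokine killing; wells of about 40 µL received 100 nL stock; the first replicate is given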
Beta2AR agonist: activates human beta-2 adrenergic receptor causing internalization; Am2.2-beta2AR cells, FAP receptor internalization, flow cytometry; reference of the scale not given here; response, % (concentration not given with the values); 0.43% of 340,000 active;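 active means response above a set limit, near 3 SD of response in nonfluorescent compounds, cut at about 42% in these data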;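 further: stock transfer was 100 nL into about 11 µL; a reference agonist was the positive control; negative values mostly stem from fluorescent compounds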
Starred values were filed as active, the others as inactive; ? = inconclusive; . = no result given.

No.	SMILES	Calb FLC	RanGTP-Imp inh	UCH37 inh	LANA-H2A inh
1	CCOC(=O)c1ccc(NC(=O)CCC(=O)OC)cc1	6	-1.2	3.6	-3.9
2	CCCCC(CC)c1nnc(NC(=O)c2cccs2)s1 (stereo not given)	33	0.9	-1.9	.
3	CC(C)COc1cccc(C(=O)NNC(=O)C2COc3ccccc3O2)c1 (stereo not given)	-10	7.4	-0.3	0.2
4	Cc1nn(Cc2ccc(Cl)cc2)c(C)c1NC(=O)c1c(-c2ccccc2)noc1C	16	2.3	2.2	3.9
5	CN(C)CCN(C(=O)c1cc(Cl)sc1Cl)c1nc2ccc(F)cc2s1	0	2.3	2.8	-4.6
6	Cc1ccc(C(=O)Nc2cc(=O)n(C)c(=O)n2C)o1	-2	3.2	11	0.6
7	CC(C)CN(C(=O)CN1CCN(S(=O)(=O)c2ccccc2)CC1)c1c(N)n(CC(C)C)c(=O)[nH]c1=O	-5	1.7	5.9	.
8	CCOc1ccc(-n2ccnc(SCC(=O)NC3CCCC3)c2=O)cc1	-4	6.9	-19	0.4
9	O=C(CCSc1nc2ccccc2s1)N/N=C/c1c(O)ccc2ccccc12	-16	2.1	.	4.3
10	CCOC(=O)c1cc(-c2ccccc2)n(CCC(=O)N2CCN(c3ccccn3)CC2)c1C	?	1.0	1.0	0.2

No.	Bfl-1 A1 inh	T cruzi inh	Beta cell apopt	Beta2AR agonist
1	-0.5	-16	-9	0
2	.	23	.	-12
3	0.5	-4	-5	-14
4	-0.1	-14	0	1
5	-0.5	56*	-7	5
6	-0.6	-17	-4	-2
7	0.2	-9	-4	-3
8	0.2	8	-8	6
9	-0.9	46	85*	-10
10	-0.4	16	-1	-11

(next part)
No.	SMILES	Calb FLC	RanGTP-Imp inh	UCH37 inh	LANA-H2A inh
11	O=S(=O)(c1ccc(NC(=S)Nc2ccccc2)cc1)N1CCOCC1	-2	-2.5	1.0	-4.2
12	COc1ccc(C2CC(c3ccc(F)cc3)n3nc(NC(=O)c4ccco4)nc3N2)cc1 (stereo not given)	2	0.6	0.2	5.9
13	O=C(c1ccc([N+](=O)[O-])s1)N1CCc2ccccc2C1	3	6.8	2.4	-0.6
14	Cc1cccc(OCc2nnc(SCC(=O)Nc3cc(C)on3)n2C)c1	-23	7.6	3.8	-2.0
15	CCc1nnc(NC(=O)c2ccc(S(C)(=O)=O)cc2)s1	-8	-4.1	8.4	12
16	CCc1sc(C(=O)N2CCN(c3ncccn3)CC2)cc1Br	22	-1.8	-3.0	-4.9
17	O=C(CN1CCCN(Cc2ccc(F)cc2Cl)C1=O)NCc1ccccc1	6	0.0	-4.8	2.6
18	Cn1c(=O)c(C#N)c(-c2ccc(F)cc2)c2cc(C(=O)c3cc(Cl)cc(Cl)c3O)cnc21	7	5.2	7.7	3.1
19	CC(C)(C)OC(=O)NCCCCCNC(=O)c1[nH]cnc1C(=O)Nc1ccc(Cl)cc1	.	.	2.9	3.5
20	CCOC(=O)c1ccc(N2CN(CCc3ccccc3)CNC2=S)cc1	?	0.6	3.8	-1.5

No.	Bfl-1 A1 inh	T cruzi inh	Beta cell apopt	Beta2AR agonist
11	-0.8	-31	.	11
12	0.3	0	5	-5
13	0.7	84*	-14	-1
14	0.1	-6	-2	-16
15	-1.0	-3	-4	0
16	-1.8	7	-3	-7
17	0.7	-3	0	5
18	-0.4	-2	28	24
19	-1.0	.	32	19
20	0.1	8	0	8

Carrying on.
No.	SMILES	Calb FLC	RanGTP-Imp inh	UCH37 inh	LANA-H2A inh
21	Cc1[nH]n(C(N)=S)c(=O)c1N=Nc1cccc(C(F)(F)F)c1	-1	-7.9	6.5	1.5
22	CCOC(=O)c1c(C)[nH]c(C(=O)OCC(=O)Nc2cc(Cl)ccc2OC)c1C	-7	-2.2	-1.4	0.5
23	O=C(CSC1=Nc2ccccc2C2CC=NN12)Nc1ccc(F)c(F)c1F (stereo not given)	.	.	4.1	0.4
24	COc1cccc(C2C(C(=O)OCc3ccccc3)=C(C)Nc3ncnn32)c1OC (stereo not given)	-4	-2.0	-3.2	0.3
25	CC(C)(C)n1cc(S(=O)(=O)c2ccccc2)[nH]c1=O	-9	4.8	1.2	1.3
26	COc1ccc(/C=C2\SC(=S)N(CCCC(=O)N3CCN(C)CC3)C2=O)cc1	-5	1.7	3.2	-5.2
27	Cc1cccc(N2CCC(N3CCN(C4CCCCC4)C(CCO)C3)CC2)c1C (stereo not given)	-11	8.3	1.4	-4.6
28	O=C(OCCCOC(=O)c1ccc([N+](=O)[O-])o1)c1ccc([N+](=O)[O-])o1	20	?	5.1	1.7
29	O=C(COc1ccccc1-c1ccccc1)N/N=C/c1ccc2ccccc2c1	3	-2.4	.	-6.8
30	COc1ccc(NC(=O)CN(c2ccc([N+](=O)[O-])cc2)S(=O)(=O)c2ccccc2)cc1	5	-4.3	4.4	4.8

No.	Bfl-1 A1 inh	T cruzi inh	Beta cell apopt	Beta2AR agonist
21	-5.1	-13	28	4
22	0.6	16	4	-4
23	0.2	.	-8	2
24	-1.3	-8	2	-10
25	0.5	6	-1	8
26	-2.3	60*	-21	11
27	0.2	41	15	9
28	-0.1	37	.	4
29	0.8	13	97*	28
30	-0.1	3	9	-1

More results.
No.	SMILES	Calb FLC	RanGTP-Imp inh	UCH37 inh	LANA-H2A inh
31	CC(=O)Nc1cccc(OCCCNS(=O)(=O)c2ccc(C#N)cc2)c1	-21	-1.4	3.6	2.2
32	Cc1ccccc1NC(=O)CCN1C(=O)CSC1=O	-9	0.1	-1.6	-3.3
33	C=CCC[C@H](Cc1ccc(F)cc1)C(=O)OC[C@H](Cc1c[nH]c2ccccc12)NC(=O)[C@H](CC=C)CC(=O)N(CCO)Cc1ccccc1	.	.	2.8	-0.8
34	O=C(Nc1cccc(F)c1)Nc1ccnn1C1CCN(C(=O)c2cscn2)CC1	1	3.2	0.3	6.5
35	O=C(c1ccncc1)N1c2ccccc2Sc2ccccc21	31	-0.2	.	-1.4
36	Cc1ccc(S(=O)(=O)Nc2ccsc2C#N)cc1	29	-3.1	0.2	-1.0
37	COc1ccccc1-c1nn(-c2ccccc2)cc1C(=O)NC1CC1	.	.	-3.0	1.6
38	Cc1cccc(OCc2nc3ccccc3c(=O)n2N)c1	12	0.0	5.6	0.1
39	O=C(Cc1ccc(Cl)cc1)NNC(=O)C(=O)NC1CCCCC1	.	.	3.4	1.8
40	CSc1nsc(SCC(=O)N2CCN(c3ccccc3)CC2)n1	-2	-2.0	5.9	0.9

No.	Bfl-1 A1 inh	T cruzi inh	Beta cell apopt	Beta2AR agonist
31	-0.8	-14	0	2
32	1.4	-19	.	-8
33	0.8	.	12	9
34	0.8	-1	0	0
35	0.1	35	-1	2
36	1.1	-2	3	4
37	-1.1	.	4	-10
38	0.0	-1	8	-5
39	0.9	.	-2	4
40	0.4	8	-5	-5

New compounds follow.
No.	SMILES	Calb FLC	RanGTP-Imp inh	UCH37 inh	LANA-H2A inh
41	Cc1cc([N+](=O)[O-])nn1CC(=O)c1ccccc1	9	1.5	6.1	0.5
42	CC1=C(C(=O)Nc2ccccc2C)C(c2ccc(C)o2)NC(=S)N1 (stereo not given)	4	-3.7	6.0	-2.3
43	CC1CCCCN1C(=O)c1ccc(NC(=O)c2ccccc2Cl)cc1 (stereo not given)	3	-5.1	-1.1	-2.6
44	N#CCCN1CCN(C2=NC(=O)/C(=C\c3cccs3)S2)CC1	?	1.1	16	-0.1
45	CN(C(=O)c1cccc([N+](=O)[O-])c1)c1ccccc1C(=O)NCc1ccccc1	-1	-1.5	-1.1	0.1
46	CCN(CC)S(=O)(=O)c1ccc(NC(=O)COC(=O)c2cc(S(=O)(=O)Nc3ccc(OC)cc3)ccc2O)cc1	-3	3.8	-5.6	-3.1
47	CCOC(=O)C1(CCOc2ccccc2)CCN(Cc2ccc(COC)o2)CC1	12	-2.9	-0.2	1.7
48	O=C(Nc1ccc(C(=O)N2CCN(c3ccc(F)cc3)CC2)cc1)C1=CSCCO1	-7	-4.1	-0.8	-2.6
49	Cc1ccc(S(=O)(=O)N2CCOCC2)cc1C(=O)O	-18	1.5	2.3	1.9
50	Oc1c(C(c2ccccn2)N2CCC(Cc3ccccc3)CC2)cc(Cl)c2cccnc12 (stereo not given)	105*	1.3	-2.1	0.7

No.	Bfl-1 A1 inh	T cruzi inh	Beta cell apopt	Beta2AR agonist
41	0.0	0	0	7
42	0.5	-12	0	6
43	-0.9	20	2	-15
44	1.4	-17	-4	-2
45	-0.3	-8	0	1
46	0.6	-7	-7	4
47	1.1	-16	-4	-2
48	0.7	0	-4	-5
49	1.1	-4	-3	2
50	-1.2	17	16	.

Single records, from the list above. Screens in order: Calb FLC	RanGTP-Imp inh	UCH37 inh	LANA-H2A inh	Bfl-1 A1 inh	T cruzi inh	Beta cell apopt	Beta2AR agonist
Results for N#CCCN1CCN(C2=NC(=O)/C(=C\c3cccs3)S2)CC1 = ?	1.1	16	-0.1	1.4	-17	-4	-2
Results for Cc1ccc(S(=O)(=O)N2CCOCC2)cc1C(=O)O = -18	1.5	2.3	1.9	1.1	-4	-3	2
Results for Oc1c(C(c2ccccn2)N2CCC(Cc3ccccc3)CC2)cc(Cl)c2cccnc12 (stereo not given) = 105*	1.3	-2.1	0.7	-1.2	17	16	.
Results for CCOC(=O)C1(CCOc2ccccc2)CCN(Cc2ccc(COC)o2)CC1 = 12	-2.9	-0.2	1.7	1.1	-16	-4	-2
Results for CC1=C(C(=O)Nc2ccccc2C)C(c2ccc(C)o2)NC(=S)N1 (stereo not given) = 4	-3.7	6.0	-2.3	0.5	-12	0	6

(more compounds)
No.	SMILES	Calb FLC	RanGTP-Imp inh	UCH37 inh	LANA-H2A inh
51	COc1ccc(N2C(=O)CC(C#N)=C2N)cc1	-3	18*	1.6	-1.5
52	O=C(COc1ccc([N+](=O)[O-])cc1Cl)NCC1CCCO1 (stereo not given)	4	3.6	2.0	-1.9
53	CCN(CC(=O)NCc1ccc(Cl)cc1)Cc1cc(=O)n2ccsc2n1	11	.	-3.5	-2.3
54	O=C(NCCN1CCOCC1)Nc1ccc(Cl)cc1Cl	3	0.7	0.3	2.1
55	CN1CCC(N(C)C(=S)Nc2ccc(F)cc2)CC1	-4	-0.2	1.0	1.8
56	Cc1ccc(NC(=O)C2C3/C=C\CCCCC32)cc1C (stereo not given)	4	-8.8	4.0	-0.2
57	Cc1cccc(C)c1N1CCN(c2ccc3nnc(C(F)(F)F)n3n2)CC1	-5	?	-1.0	-0.2

No.	Bfl-1 A1 inh	T cruzi inh	Beta cell apopt	Beta2AR agonist
51	-0.4	-22	6	-5
52	0.0	-2	1	-1
53	-0.4	.	-2	-3
54	-0.9	-14	-6	4
55	0.2	-9	-4	3
56	-0.1	20	.	1
57	0.7	18	.	7

Screens from PubChem BioAssay.
